Vaccinia mCherry – vaccinia inhibition (mCherry reporter); Vaccinia virus mCherry reporter infection, fluorescence; about a quarter of the inactives have no number; Potency, µM (series often up to 36.5 µM), for inactives: at the highest dose activity change, negative = inhibition, actives largely listed as inhibitors; actives 0.63% (n = 310,000); AID 720579; active = well fitted inhibition curve with a large enough effect; inconclusive = small, poorly fitted or top-dose-only effect; inactive = no such curve, though single readings can be large or run the other way; tested in A549 cells; also: nearly all actives have a fitted effect of over 35% in size; inactives centre near -10
Vaccinia Venus – inhibitors of vaccinia virus (Venus reporter); Vaccinia virus Venus reporter expression, fluorescence; Potency, µM (top dose mostly 36.5 µM), without a hit: top-dose activity change, negative = inhibition, actives largely listed as inhibitors; actives 0.46% (n = 330,000); AID 720580; active means well fitted inhibition curve with a large enough effect; inconclusive means small, poorly fitted or top-dose-only effect; inactive means no such curve, though single readings can be large or run the other way; tested in A549 cells; also: nearly all actives have a fitted effect of over 30% in size; inactives centre near -10
An asterisk follows results filed as active; i = inactive; ? = inconclusive; nt = not tested or not shown; & = joins results of further samples; [ ] = another dose, or the depositor's remark. % is scaled to controls: 0 for no effect and ±100 for the full control effect; potency is read from the fitted curve at half-maximal effect. No enrichment for hits. Share with any hit: about 0.87%.

Fields – Vaccinia mCherry	Vaccinia Venus
CCCCn1c(N)c(N(CC)C(=O)C2=NN(c3ccccc3)C(=O)CC2)c(=O)[nH]c1=O
→ -6%	-2%
Cc1ccc(CN2CCC(N3CCC(C(=O)NCC4CCCO4)CC3)CC2)o1 (configuration not stated)
→ -4%	-9%
Cc1ccc(C(=O)NC(=S)Nc2ccc(CN3CCCCC3)cc2)c(C)c1
→ ?	?
Cc1cc(C(F)(F)F)n2nc(C)c(-c3ccc(Cl)cc3)c2n1
→ -9%	-11%
CC(C)=NNC(=O)CN1C(=O)NC2NC(=O)NC21 (configuration not stated)
→ -7%	-3%
Cc1ccccc1C(=O)Nc1sc2c(c1C(=O)N1CCCCC1)CCC(C(C)(C)C)C2 (configuration not stated)
→ i	-12%
O=C(O)c1cccc(N/N=C/c2ccc(F)c(F)c2)c1
→ i	-1%
O=C(OCc1nnc(-c2ccc([N+](=O)[O-])cc2)o1)C1CC(=O)N(CCc2ccccc2)C1 (configuration not stated)
→ -5%	-5%
CCOC(=O)c1nn(-c2ccc(C)cc2)c(=O)c2c(N)scc12
→ 58%[activator][1.46 µM]	-12%
O=c1c2ccccc2nc(SCc2ccccc2F)n1C1CCCC1
→ -18%	-20%
COc1ccc(C2N=C(N)N=C(N)N2c2ccc(C)cc2)cc1 (configuration not stated)
→ -8%	-9%
Clc1ccccc1N1CCN(Cc2nnc(-c3ccccc3)o2)CC1
→ -4%	-3%
O=C(Nc1ccccc1)c1ccc(-c2ccc([N+](=O)[O-])cc2)o1
→ -4%	-15%
Cc1c(CC(=O)N[C@H](C(=O)O)C(C)C)c(=O)oc2cc3c(cc12)CCC(C)(C)O3
→ i	-4%
CCc1ccc2c(c1)NC(=O)C2(C)Cc1ccccc1OC (configuration not stated)
→ -14%	-19%
CCN(CC(=O)NCc1cccs1)C(=O)c1cc(=O)[nH]c2ccccc12
→ -15%	-7%
CCOC(=O)c1c(N2C(=O)C=CC2=O)sc(C)c1C
→ ?	?
O=C(Nc1nnc(-c2ccc(Cl)cc2)o1)c1nc2ccccc2s1
→ ?	?
Cc1cc(=O)oc2cc(OCC(=O)N/N=C/c3ccccc3[N+](=O)[O-])ccc12
→ -15%	-28%
O=C(c1cc2nc(-c3ccco3)cc(C(F)(F)F)n2n1)N1CCc2ccccc2C1
→ i	0%
C/C(=N/O)c1cccc(N2Cc3ccccc3C2)c1
→ ?	-5%
COC(=O)CS(=O)(=O)c1nc2ccccc2nc1N1CCCCC1
→ -27%	-17%
Cc1ccc2oc(=O)n(CCNC(=O)Nc3ccccc3Cl)c2c1
→ -15%	-5%
CC(C)COc1ccc(C(=O)Nc2onc3c2CCCC3)cc1
→ -9%	-1%
COc1ccc(-n2nnnc2C(c2ccnc3ccccc23)N2CCC(n3c(=O)[nH]c4ccccc43)CC2)cc1 (configuration not stated)
→ -1%	-16%
COc1ccc(-c2coc3cc(O[C@@H]4O[C@H](CO)[C@@H](O)[C@H](O)[C@H]4O)ccc3c2=O)cc1
→ 0%	-11%
CCOc1ccc(CN2C(=O)c3ccccc3C2=O)cc1C(=O)N1CCC(C(N)=O)CC1
→ -3%	-12%
COC(=O)/C=c1/sc2nc3ccccc3n2c1=O
→ -12%	-4%
COc1ccc2c(c1)CC(C(=O)NCCCN1CCN(c3cccc(Cl)c3)CC1)CO2 (configuration not stated)
→ i	-26%
O=C1Nc2ccccc2C1Cc1ccccn1 (configuration not stated)
→ 0%	-4%
Cc1ccc(OCC(=O)N2CCc3ccccc3C2)c(C)c1
→ -7%	-16%
Cc1ccc(C(O)(C(=O)NNC(=O)CN2CCN(C)CC2)c2ccc(C)cc2)cc1
→ i	-16%
CCC(CC)C(=O)c1c[nH]c(C(=O)NCc2cccnc2)c1
→ -1%	-19%
O=C(c1cccc([N+](=O)[O-])c1)N1CCN(c2ccccn2)CC1
→ -14%	-8%
CC1Cc2cc(/C(O)=C3/C(=O)C(=O)N(CCN4CCOCC4)C3c3ccc([N+](=O)[O-])cc3)ccc2O1 (configuration not stated)
→ -14%	-9%
COc1ccccc1CC(NC(C)=O)C(=O)NC1CCN(C(=O)c2ccc([N+](=O)[O-])cc2)CC1 (configuration not stated)
→ i	-10%
COC(=O)C1OC1c1cc([N+](=O)[O-])ccc1OC (configuration not stated)
→ -1%	-11%
O=C(COc1ccc2ccccc2c1)NNC(=O)c1cnccn1
→ ?	-19%
O=C(O)Cc1ccc(N=Nc2c(O)c(C(=O)O)cc3ccccc23)cc1
→ -5%	6%
COc1ccc(/C=N/NC(=O)c2cccc(Br)c2)cc1Cn1cc(Cl)cn1
→ ?	?
CCCCCCOc1ccc(C(CC(N)=O)C(=O)O)cc1 (configuration not stated)
→ 5%	10%
O=C(CCc1ccccc1)N1CCN(c2ccc(F)cc2)CC1
→ -6%	-13%
CCC1OC23CCCCC2C(C#N)(C(=N)O3)C1(C#N)C#N (configuration not stated)
→ nt	-8%
CCOC(=O)c1cc2occc2n1CC(=O)N1CCN(C(=O)c2ccco2)CC1
→ -2%	0%
O=C(NC(=S)Nc1ccc(Cl)c(C(=O)O)c1)c1cccc(COc2ccccc2)c1
→ i	-19%
COc1ccc(Nc2oc(COc3ccccc3F)nc2C#N)cc1
→ -5%	-4%
N/N=C(\c1ccccc1)c1cc(Cl)ccc1N
→ -28%	-13%
Cc1ccc(OCc2nc(-c3ccccc3)no2)c(C)c1
→ -12%[1.46 µM]	-18%
COC(=O)[C@@]12C[C@@H](CC(=O)NCCCN3CCCC3=O)C(=O)N(Cc3ccc4c(c3)OCO4)C1=CCC(C)(C)C2
→ i	-14%
O=C(NCCCN1CCOCC1)c1cccc(S(=O)(=O)NCc2ccccc2)c1
→ -16%	-6%
O=C(NCCSc1c(-c2ccc(Br)cc2)[nH]c2ccccc12)c1ccc(S(=O)(=O)N2CCOCC2)cc1
→ -15%	-20%
Oc1ccc(-c2nc(=S)[nH][nH]2)cc1
→ nt	-22%
Cc1cc(C)c2cc(C#N)c(NCCNC(=O)c3cccnc3)nc2c1
→ ?	?
O=C(CCC(=O)OCC(=O)c1ccc([N+](=O)[O-])cc1)Nc1ccccc1Cl
→ -14%	-5%
COc1cccc(-c2nc(CS(=O)(=O)CC(=O)NCCN3CCOCC3)c(C)o2)c1
→ i	-19%
Cc1cccc(S(=O)(=O)Nc2ccc(-c3cn4ccccc4n3)cc2)c1
→ i	-16%
Cc1ccc(CNC(=O)CSc2nc3ccccc3nc2Cc2ccc(C)cc2)cc1
→ -6%	-2%
N#Cc1c(-c2cccs2)nc(SCc2ccc(Cl)cc2)[nH]c1=O
→ -6%	-4%
Cc1cc(C)c(C)c(OCCn2ccnc2)c1
→ -19%	-18%
CN(Cc1ccccc1)C(=O)c1nn2cccnc2c1Cl
→ i	9%

Additional entries:
Fields – Vaccinia mCherry	Vaccinia Venus
Fc1ccc(Nc2nnc(-c3ccncc3)s2)cc1Cl
→ 31%	-6%
CC(=O)c1cccc(NC(=O)C(C)OC(=O)Cc2c[nH]c3ccccc23)c1 (configuration not stated)
→ -20%	-7%
CCOc1ccc(Cl)cc1C1=CC(=O)C[C@H](c2ccc(OC)cc2)C1
→ i	-25%
O=C(Nc1nc2ccccc2n1CCN1CCCCC1)C1CCCCC1
→ nt	-27%
O=C(OCCOc1ccccc1)c1n[nH]c2ccccc12
→ -10%	3%
O=C(Cn1ncc2c(=O)oc3ccccc3c21)N1CCC(N2CCCCC2)CC1
→ -3%	-9%
COCCNC(=O)CCCn1c(=O)[nH]c2ccsc2c1=O
→ -4%	1%
CN(C(=O)CSc1nc2ccccc2n1CC(=O)N(C)c1ccc(F)cc1)c1ccccc1
→ -3%	-6%
O=C(CN1c2cccc3cccc(c23)S1(=O)=O)NCc1ccc(F)cc1
→ -10%	-25%
Cc1ccc(S(=O)(=O)N2CCCC2CO)cc1 (configuration not stated)
→ -17%	-10%
O=C(NN1C(=O)C2C3C=CC(O3)C2C1=O)c1cccc(Br)c1 (configuration not stated)
→ -16%	-12%
CC(=O)N1CCc2cc(S(=O)(=O)Nc3cccc(C(F)(F)F)c3)ccc21
→ ?	?
Cc1cccc(NC(=O)N2C3CCCC2CC(NC(=O)C2CC2)C3)c1 (configuration not stated)
→ -1%	-4%
CCn1nc(C)c(NC(=O)c2cnn3c(C(F)F)cc(-c4ccccc4)nc23)c1C
→ i	-15%
Cc1cccc(C)c1OCc1cc(C(=O)NCC2CC2)no1
→ -13%	-8%
CCOc1ccccc1NC(=O)CN1CCC(C(=O)c2ccc(F)cc2)CC1
→ -9%	1%
Cn1nnnc1SCC(=O)Nc1ccc(N2CCOCC2)cc1
→ -15%	0%
COc1cccc(C(C)(O)c2nc(-c3ccccc3OC)cs2)c1 (configuration not stated)
→ i	0%
CCCCCOc1ccc(C(=O)NC(C(=O)O)C(C)C)cc1 (configuration not stated)
→ -10%	-4%
Cc1cc(NS(=O)(=O)c2ccc(NC(=O)c3ccccc3F)cc2)nc(C)n1
→ -2%	-7%
CC1CC(CC(=O)Nc2nc(-c3ccccc3)cs2)C(=O)O1 (configuration not stated)
→ -7%	-4%
CC(C)Cc1c(O)nc(SCC(=O)N2CCCCCC2)[nH]c1=O
→ i	4%
COc1ccc(/C(C)=N/NC(=O)c2ccccc2OCc2ccccc2)c(OC)c1
→ -6%	-2%
Cc1ccc(C)c(N2CCN(C(=O)c3noc4c3CCCCC4)CC2)c1
→ -12%	-3%
Cn1c(C(=O)NCc2cccc(F)c2)cc2cc(S(=O)(=O)N3CCCCC3)ccc21
→ -7%	-27%
CN(C(=O)COC(=O)CCC(=O)c1ccccc1)c1c(N)n(Cc2ccccc2)c(=O)[nH]c1=O
→ -23%	-16%
CCn1cc(C2N3CC4(CC)CN2CC(CC)(C3)C4=O)c2ccccc21 (configuration not stated)
→ -13%	-15%
O=C1C[C@@H]2c3c(cccc3CN1Cc1ccc(F)cc1)C[C@@H](O)[C@H]2O
→ -29%&-8%	-12%&-14%
COc1ccc(C(NC(C)=O)c2c(O)ccc3ccccc23)cc1OC (configuration not stated)
→ -15%	-1%
Cc1ccccc1NC(=O)CN1CCOCC1
→ i	-5%
CC(C)(C(=O)O)c1ccc(C(O)CCCN2CCC(C(O)(c3ccccc3)c3ccccc3)CC2)cc1 (configuration not stated)
→ -14%&2%	-3%&11%
CCOC(=O)c1ccc(NC(=O)Cn2nnc3ccccc32)cc1
→ nt	-22%
COc1ccc(NC(=O)c2c(NC(=O)c3cccc(C)c3)sc3c2CCCC3)cc1
→ -13%	-12%
Cc1ccc(S(=O)(=O)Nc2ccccc2N=Cc2c(F)c(F)c(F)c(F)c2F)cc1
→ i	-6%
CC1CCCC(NC(=O)CCCCCn2c(=S)[nH]c3ccsc3c2=O)C1C (configuration not stated)
→ -3%	-11%
O=C(O)[C@@H]1CCCN1S(=O)(=O)c1cccc2cccnc12
→ -3%	-6%
COc1cc(C=C(C#N)C(=O)c2ccccc2)cc(OC)c1OC
→ 47%[activator]	-2%
CCOC(=O)CNC(=O)CSc1ncnc2c1nnn2-c1ccc(F)cc1
→ nt	-11%
COc1ccc(/C=N/n2cncn2)cc1CSc1ccccn1
→ -15%[1.46 µM]	-17%
CO[C@H]1CC=C2CCN3CCC4=C(CC(=O)OC4)[C@]23C1
→ -5%	-16%&-8%
CCOC(=O)c1c(NC(=S)N2CCCCC2)sc2c1CCN(C(=O)OCC)C2
→ -1%	2%
COc1ccccc1NC(=O)CCSc1ccc(C)cc1
→ i	-7%
COc1ccc(NCc2nnc(SCC(=O)N3CCCc4ccccc43)n2C)cc1
→ -17%	-7%
Cc1ccc(N(C(=O)c2ccccn2)C(C(=O)NC2CCCCC2)c2ccncc2)cc1 (configuration not stated)
→ -22%	11%
O=C(CCSCCC(=O)NCCN1CCOCC1)NCCN1CCOCC1
→ -4%	-2%
O=C(CC1C(=O)NCCN1Cc1ccoc1)NCCCn1ncc2ccccc21 (configuration not stated)
→ i	-8%
CCc1ccc(S(=O)(=O)c2nnn3c2nc(N2CCOCC2)c2ccccc23)cc1
→ 0%	1%
CC(COc1ccccc1)N1CCC(CO)(Cc2ccccc2)CC1 (configuration not stated)
→ i	-6%
CC(C)c1nc(SCC(=O)c2c[nH]c3ccccc23)n[nH]1
→ -1%	-13%
CC(c1ccccc1)n1c(-c2ccc(Cl)cc2)n[nH]c1=S (configuration not stated)
→ i	-3%
COc1ccccc1-c1nc2c(c(SCc3cccc(Cl)c3)n1)Cc1c(CO)cnc(C)c1O2
→ ?	?

Pulled by structure from the entries so far:
Fields – Vaccinia mCherry	Vaccinia Venus
Cc1ccc(N(C(=O)c2ccccn2)C(C(=O)NC2CCCCC2)c2ccncc2)cc1 (configuration not stated)
→ -22%	11%
COc1ccc(/C=N/n2cncn2)cc1CSc1ccccn1
→ -15%[1.46 µM]	-17%
CO[C@H]1CC=C2CCN3CCC4=C(CC(=O)OC4)[C@]23C1
→ -5%	-16%&-8%
COc1cc(C=C(C#N)C(=O)c2ccccc2)cc(OC)c1OC
→ 47%[activator]	-2%
CC1CCCC(NC(=O)CCCCCn2c(=S)[nH]c3ccsc3c2=O)C1C (configuration not stated)
→ -3%	-11%
CCc1ccc(S(=O)(=O)c2nnn3c2nc(N2CCOCC2)c2ccccc23)cc1
→ 0%	1%

Source: PubChem BioAssay (National Center for Advancing Translational Sciences (NCATS))
